Source: PubChem BioAssay
KCNQ2 block: KCNQ2 channel blockers in CHO-K1 cells – cell-based, FluxOR thallium flux, B-score, primary screen (AID 2156) | B-score at 10 µM | 20 min; hits give low values; only compounds with negative scores are shown here; some inactives read as strong as hits | 310,000 compounds, 1.1% hits;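 active means fluorescence ratio B-score at most minus 3 library SDs, with starting brightness B-score within 2 library SDs, cut at about -5.5 in these data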
Target sequence (O88943 whole entry, looked up): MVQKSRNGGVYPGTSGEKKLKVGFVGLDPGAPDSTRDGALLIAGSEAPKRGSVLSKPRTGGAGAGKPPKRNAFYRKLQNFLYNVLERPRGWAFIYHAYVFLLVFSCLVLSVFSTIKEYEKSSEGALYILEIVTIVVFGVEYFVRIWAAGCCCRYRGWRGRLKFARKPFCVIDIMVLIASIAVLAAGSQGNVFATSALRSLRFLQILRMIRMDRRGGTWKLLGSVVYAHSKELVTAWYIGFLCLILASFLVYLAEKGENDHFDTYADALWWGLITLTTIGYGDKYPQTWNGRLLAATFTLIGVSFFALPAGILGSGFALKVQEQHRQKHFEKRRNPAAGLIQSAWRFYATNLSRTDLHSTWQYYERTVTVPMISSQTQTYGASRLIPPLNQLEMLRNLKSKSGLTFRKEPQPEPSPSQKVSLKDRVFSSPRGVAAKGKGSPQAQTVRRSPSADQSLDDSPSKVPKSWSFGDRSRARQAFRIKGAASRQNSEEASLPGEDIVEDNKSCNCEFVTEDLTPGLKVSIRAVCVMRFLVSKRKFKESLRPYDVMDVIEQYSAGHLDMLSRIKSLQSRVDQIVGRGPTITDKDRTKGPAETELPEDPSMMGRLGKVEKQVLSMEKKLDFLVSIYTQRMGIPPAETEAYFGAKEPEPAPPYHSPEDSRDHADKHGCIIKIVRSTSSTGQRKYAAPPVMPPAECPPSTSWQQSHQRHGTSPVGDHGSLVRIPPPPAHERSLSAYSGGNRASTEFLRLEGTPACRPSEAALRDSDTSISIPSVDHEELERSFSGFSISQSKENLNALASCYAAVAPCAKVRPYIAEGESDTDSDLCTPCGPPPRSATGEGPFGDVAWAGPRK
KCNQ2 block baseline: second read-out of KCNQ2 block, no call of its own (marks repeat the call); B-score; measured here: initial fluorescence intensity artifact check;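 brightness before thallium and not channel activity; 0 = typical well and far values either way flag optical interference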
* marks the source's active call; other numbers are inactive results; i = inactive. These rows are one share of the data (hit frequency here may not be typical).

SMILES	KCNQ2 block	KCNQ2 block baseline
COC1=C(Nc2ccc(C)cc2)C(=O)c2ccccc2C1=O	i	0.02
O=C(COC(=O)Cc1ccc(Cl)cc1Cl)Nc1ccccc1OC(F)F	i	0.02
COC(=O)c1ccc(/C=C(/NC(=O)c2ccccc2)C(=O)N2CCOCC2)cc1	i	-1.9
COc1ccc(C(=O)n2cnc3ccccc32)cc1	i	1.81
O=C(C[n+]1cccc(CNC(=O)c2ccc(OC(F)F)cc2)c1)Nc1cccc(C(F)(F)F)c1	i	-1.37
CC(C)(C)N(NC(=O)Nc1ccc(Cl)c(Cl)c1)C(=O)c1ccccc1	i	1.38
CCC1(C)CC(CCN(Cc2ccco2)C(C)=O)(c2ccccc2)CCO1 (configuration not stated)	i	-1.04
Fc1cccc(CSc2nc3ncc(Cl)cc3[nH]2)c1	i	-1.66
CCN(CC)S(=O)(=O)c1cc(NC(=O)Cn2ncc(Cl)c(Cl)c2=O)ccc1C	i	-0.36
O=C(OCc1cccc([N+](=O)[O-])c1)c1cccnc1	i	-0.27
Fc1ccc(-c2ccnc3nc(-n4cccc4)nn23)cc1	i	-1.28
O=C(NCc1cccnc1)C1CC2c3ccccc3C1c1ccccc12 (configuration not stated)	i	0.28
CC(Oc1ccccc1Cl)c1nnc(N)s1 (configuration not stated)	i	1.21
CCOc1ccc(N(CC(=O)N2CC=C(c3ccccc3)CC2)S(=O)(=O)c2c(C)noc2C)cc1	-8.62*	0.28*
S=C(Nc1cccc(Cl)c1Cl)N1CCCC1	i	1.72
Cc1cccc(C(=O)N2CCC(Cc3ccccc3)CC2)c1[N+](=O)[O-]	i	-0.34
CC(OC(=O)CNC(=O)C12CC3CC(CC(C3)C1)C2)C(=O)Nc1ccc(S(N)(=O)=O)cc1 (configuration not stated)	i	1.32
Cc1ccc(C(=O)NNC(=O)c2cccc(S(=O)(=O)N3CCN(c4ccccc4)CC3)c2)cc1	i	-2.02
N#Cc1cnn(-c2ncnc3sc4c(c23)CCCC4)c1N	i	0.47
C=CCOc1cccc(/C=N/NC(=O)CN(c2cc(Cl)ccc2OC)S(=O)(=O)c2ccc(C)c([N+](=O)[O-])c2)c1	i	0.32
COc1cccc(NC(=O)CCN2C(=O)C3CC=CCC3C2=O)c1 (configuration not stated)	i	0.91
Cc1ccc(S(=O)(=O)NCCN(CCNS(=O)(=O)c2ccc(C)cc2)S(C)(=O)=O)cc1	i	0.92
COC(=O)N/N=C(\C)c1ccc(C)c([N+](=O)[O-])c1	i	-0.33
CCCCCCCCn1c2c(c(=N)c3ccccc31)CCC2	-5.74*	0.02*
C/C(=N\NC(=O)c1nc2ccccn2c1C)c1ccco1	i	0.05
C#CCOc1c(Br)cc(/C=C2/C(=O)ON=C2C)cc1OCC	i	0.02
Cc1ccccc1OC(C)C(=O)N1CCC(Cc2ccccc2)CC1 (configuration not stated)	i	0.67
COc1ccc(CCNC(=O)C2CCC(=O)N2Cc2ccccc2Cl)cc1OC (configuration not stated)	i	-1.03
Cc1occc1C(=O)NNC(=O)C(c1ccccc1)c1ccccc1	i	1.55
O=C(CN(C(=O)CCC(=O)Nc1ccccn1)c1ccc(F)cc1)NCc1ccco1	i	0.71

Part of the list above, with two lines to a compound:
Values run as follows: KCNQ2 block | KCNQ2 block baseline
> O=C(OCc1cccc([N+](=O)[O-])c1)c1cccnc1
  i | -0.27
> C#CCOc1c(Br)cc(/C=C2/C(=O)ON=C2C)cc1OCC
  i | 0.02
> Fc1ccc(-c2ccnc3nc(-n4cccc4)nn23)cc1
  i | -1.28
> C=CCOc1cccc(/C=N/NC(=O)CN(c2cc(Cl)ccc2OC)S(=O)(=O)c2ccc(C)c([N+](=O)[O-])c2)c1
  i | 0.32
> Cc1ccc(C(=O)NNC(=O)c2cccc(S(=O)(=O)N3CCN(c4ccccc4)CC3)c2)cc1
  i | -2.02
> Cc1ccc(S(=O)(=O)NCCN(CCNS(=O)(=O)c2ccc(C)cc2)S(C)(=O)=O)cc1
  i | 0.92

Carrying on:
SMILES	KCNQ2 block	KCNQ2 block baseline
CN(C)C(=S)Nc1ccc(Br)cc1Cl	i	0.01
COc1ccc(S(=O)(=O)Nc2cc(Cl)ccc2OC)cc1	i	0.07
CCC(C)C(=O)Nc1cc(Cl)ccc1C(=O)O (configuration not stated)	i	0.19
COc1ccc(NS(=O)(=O)c2cc(NC(=O)[C@@H](NC(N)=O)C(C)C)ccc2C)cc1	i	-0.71
O=C(CC(c1ccccc1)c1cc(Br)ccc1O)NCCCN1CCOCC1 (configuration not stated)	i	0.77
Cc1ccc(NC(=S)N(C)Cc2cn(C)c3ccccc23)cc1	i	-0.09
CCOC(=O)C1=C(C)N(c2ccccc2)C(=O)C1CC(=O)O (configuration not stated)	i	2.59
COc1ccc(C(=O)C2CCCN(C(=O)CCC3=NNC(=O)CC3)C2)c(C)c1 (configuration not stated)	i	0.79
CCS(=O)(=O)c1nc(S(=O)(=O)c2ccc(Cl)cc2)c(N2CCOCC2)s1	i	0.95
O=C(NCc1cccnc1)c1ccc(-c2cc3ccccc3oc2=O)cc1	i	0.05
O=C(NCCc1ccccc1)C1CCN(C(=O)Nc2ccccc2)CC1	i	-0.58
O=C(CCl)N=c1sccn1Cc1cccc2ccccc12	i	1.25
Cc1cc(C)nc(NC(=O)c2c(F)c(F)c(F)c(C(=O)Nc3cc(C)cc(C)n3)c2F)c1	i	1.04
COc1ccc(CNC(=O)COC(=O)CC2CC3CCC2C3)cc1OC (configuration not stated)	i	0.15
O=c1c2ccccc2nc(COc2ccccc2)n1/N=C/c1ccc(O)c(O)c1	i	-3.54
Cc1ccc(Nc2nc3ccccc3c(=O)s2)cc1C	i	0.04
CCC1=Nc2cc(C(=O)NCCN3CCOCC3)ccc2Sc2ccccc21	i	-0.02
COc1ccc(NC(=O)c2cc(S(=O)(=O)N3CCc4ccccc43)cn2C)cc1	i	-0.02
O=C(COC(=O)c1cccc2ccccc12)Nc1ncc(C(F)(F)F)cc1Cl	i	-1.53
CCOc1ccc2[nH]c3ncccc3c(=O)c2c1	i	0.89
Cc1[nH][nH]c(=O)c1C=NCc1cccs1	i	-0.6
CC(C)c1nccn1S(=O)(=O)c1cc(Cl)ccc1Cl	i	-0.12
O=C(c1cccc(NS(=O)(=O)c2ccc(F)c(F)c2)c1)N1CCN(C(c2ccccc2)c2ccccc2)CC1	i	-1.96
Oc1ccc(-c2[nH]ncc2-c2cnn(-c3ccccc3)c2)c(O)c1	i	-1.11
O=C(NC1CCCCCC1)C(=S)NCCc1ccccc1	i	1.01
c1ccc(N2CCN(Cc3ccsc3)CC2)nc1	i	0.04
Cc1cc(OCC(=O)NNC(=O)CCc2ccccc2)ccc1Br	i	3.24
Cc1ccc(OCC(=O)Nc2cc(S(=O)(=O)N3CCCCC3)ccc2C)c([N+](=O)[O-])n1	i	0.35
Cc1cccc(NCc2ccccc2OCc2ccccc2F)c1	-5.55*	-0.22*
CSc1nncn1/N=C/c1cc(Cl)ccc1F	i	-1.11

SMILES	KCNQ2 block	KCNQ2 block baseline
Cc1c(NCc2ccncc2)cccc1C(=O)O	i	0.39
O=C(Nc1ccc2sccc2c1)c1ccc(Cl)s1	i	0.4
Cc1c(NC(=O)CN2CCN(c3ccccc3)CC2)c(=O)n(-c2ccccc2)n1C	i	0.17
COCCNC(=O)c1cc2sc3ccccc3c2s1	i	1.21
COc1ccc(-c2noc(CSc3nc4ccccc4c(=O)n3-c3ccccc3)n2)cc1OC	i	0.53
Cc1ccnc(NC(=O)CCC(=O)N(CC(=O)NCC2CCCO2)Cc2ccc(F)cc2)c1 (configuration not stated)	i	-2.73
O=C(CSc1ccccn1)Nc1nonc1[N+](=O)[O-]	i	1.33
CN(C)c1cccc(C(=O)N(Cc2ccccc2)Cc2ccccc2)c1	i	1.94
N#C/C(=C(/O)CN1C(=O)c2ccccc2C1=O)c1nc2ccccc2[nH]1	i	-1.57
CCC1(CC)C(=O)C(C)(C)C(=O)OC1c1cccs1 (configuration not stated)	i	1.34
COc1ccc2oc(=O)cc(-c3cc4cccc(OC)c4o3)c2c1	i	-0.11
Cc1cccc(-n2c(O)c(C=Nc3ccccc3-c3n[nH]c(=S)[nH]c3=O)c3ccccc3c2=O)n1	i	-0.82
O=C1CCCN1CCCN1C(=O)N[C@@H](Cc2ccccc2)C1=O	i	-0.22
Cc1ccnc2nc(C(=O)OCC(=O)NCCc3ccccc3)nn12	i	0.39
Cc1cc(C)n2cc(CSc3nnnn3-c3ccccc3C)nc2n1	i	-3.27
COc1ccc(N2CCN(C(CNS(=O)(=O)c3cc(F)ccc3F)c3cccnc3)CC2)cc1 (configuration not stated)	i	1.68
Cc1ccc(N2C(=O)C(Cl)=C(NCCO)C2=O)c(C)c1	i	-0.26
Cn1c(CNc2ccc(Cl)cc2)nnc1SCc1ccccc1	i	1.41
COc1ccc(OCC(=O)Nc2c3c(nn2C(C)(C)C)CS(=O)(=O)C3)cc1	i	0.49
O=C(Nc1ccc(Cl)cn1)c1ccc2c(Cl)c3c(nc2c1)CCC3	i	-0.64
COc1ccc(C(C(=O)NC2CCCCC2)N(CC2CCCO2)C(=O)CCCC(=O)Nc2ccccn2)cc1 (configuration not stated)	i	-0.82
O=C(CCc1c[nH]c2ccccc12)NCC1COc2ccccc2O1 (configuration not stated)	i	0.7
O=C(CN1CCN(c2ccccc2F)CC1)c1ccc2cc[nH]c2c1	i	1.52
CC(C)CN(CC(C)C)S(=O)(=O)N1CCC(C(=O)NCCN2CCOCC2)CC1	i	1.12
COc1cc(NC(=O)c2cc([N+](=O)[O-])ccc2NC(=O)CNC2CCCCC2C)cc(OC)c1 (configuration not stated)	i	-0.05
O=C(CO/N=C/c1ccccc1OC(F)F)NC1CCCC1	i	-1.34
O=c1[nH]ncc(N/N=C\c2cccnc2)c1Cl	i	0.43
COc1ccc2[nH]cc(C(O)CN3CCN(c4ccccc4)CC3)c2c1 (configuration not stated)	i	-1.13
COC(=O)c1c(NC(=O)CN2C(=O)c3ccccc3C2=O)sc(Cc2ccc3c(c2)OCO3)c1C	i	-0.74
CCc1ccc(NC(=O)c2sc3nc(C)nc(N4CCN(c5ccccn5)CC4)c3c2C)cc1	i	-1.5

SMILES	KCNQ2 block	KCNQ2 block baseline
C=CCOn1c(=O)c(-c2ccc(OCC)cc2)[n+]([O-])c2ccccc21	i	-0.76
Cc1cccc(C(C)C)c1NC(=O)C(C)OC(=O)Cc1n[nH]c(=O)c2ccccc12 (configuration not stated)	-6.67*	0.01*
O=C(N/N=C/c1ccc(O)cc1)/C(=C/c1ccccc1)CCO	i	1.88
CCN=C(NCC)SC1CC(=O)N(c2ccccc2)C1=O (configuration not stated)	i	-0.17
O=C(CN(C(=O)CCC(=O)Nc1ccccn1)c1cccc(F)c1)NCc1ccco1	i	1.72
CCOC(=O)n1c(O)c(N=NC(N)=S)c2cc(C)ccc21	i	4.35
CCN(CC)CCCNC(=O)CCn1nc(-c2ccc(Cl)cc2)ccc1=O	i	-0.88
O=C(NCc1ccccc1)C1Cc2ccccc2CN1C(=O)c1ccco1 (configuration not stated)	i	-1.69
CCOc1ccc2c(c1)OC(c1ccccc1)(C(F)(F)F)NC2=O (configuration not stated)	i	2.19
Cc1ccc(Nc2nc(CSc3nnc(-c4ccccc4C)n3C)cs2)cc1	i	2.18
Cc1cccc(Oc2ncnc3oc(-c4ccccc4)cc23)c1C	i	-0.04
Cc1cccc(OCC(=O)N(Cc2ccco2)C2CCS(=O)(=O)C2)c1C (configuration not stated)	i	1
O=C(OCc1cc(=O)n2cc(Br)ccc2n1)c1ccc(Cl)c(S(=O)(=O)NCc2ccccc2)c1	i	-0.51
CCCCc1ccc(-n2nnnc2SCC(=O)Nc2cc(OC)c([N+](=O)[O-])cc2C)cc1	i	0.21
CCC(=O)Nc1ccc2c(c1)nc1n2CCN(C2CCCCC2)C1	i	3.94
CCc1ccc(C(=O)NNC(=O)CC2OC(=O)c3ccccc32)cc1 (configuration not stated)	i	0.42
CCOC(=O)N1CCN(C(=O)C2CC(c3ccccc3OC)=NO2)CC1 (configuration not stated)	i	-0.16
CC1CCCN(S(=O)(=O)c2ccc(NC(=O)c3cccc(-n4cnnn4)c3)cc2)C1 (configuration not stated)	i	1.95
Cc1cc(C)cc(N2CCN(C(=O)N3CCOCC3)CC2)c1	i	0.83
CCC[n+]1cn(/C(C(=S)Nc2cccc(Cl)c2C)=C(/[O-])c2ccc(OC)c(OC)c2)c2ccccc21	i	-0.49
OCCN1CN=C(Nc2nc3ccccc3o2)NC1	i	-0.08
Cc1cccc(-n2cc(CN(C)Cc3nccn3C)c(-c3cccc(F)c3)n2)c1	-6.71*	1.46*
Fc1ccccc1CSc1nncn1NC/C=C/c1ccccc1	i	0.29
CCOC(=O)N1CCC(N(CCN(C)C)C(=S)Nc2cccc(SC)c2)CC1	i	0.01
O=C(Nc1nc2ccccc2s1)NC1CCCCC1	i	1.68
CCN(CC)CCNC(=O)CSc1c2c(nc3cc(Cl)ccc13)CCCC2	i	0.04
Cc1cc(C)nc(SCc2ccc(Br)cc2)n1	i	3.51
CN(/C(=N/S(=O)(=O)c1cccs1)c1ccccc1)c1ccc(O)cc1	i	-0.93
COC(=O)c1cc(S(=O)(=O)N2CCCCCC2)cn1C	i	-0.31
NC(=O)c1ccc(CN2CCC(Cc3ccccc3)CC2)cc1	i	0.22
O=C1ON=C(c2ccccc2)/C1=C\c1ccco1	i	0.23
Cc1cc(OCC(O)CN2CCN(c3ccccn3)CC2)cc(C)c1Cl (configuration not stated)	i	0.25
CC1CC(C)CN(C(=O)c2ccc3nc[nH]c3c2)C1 (configuration not stated)	i	1.69
